# High-throughput results: PubChem, several laboratories
# WNV NS2B-NS3 inh: WNV NS2B-NS3 proteinase inhibition; P06935; WNV NS2B-NS3 protease, fluorogenic substrate Ex360/Em465; hits give low values; z-score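 (tested at a level between 10 and 100 µM)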; 0.18% of 65,000 active; AID 577;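 active = z-score at -3 or under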;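 also: score is relative to mean and spread of the compound wells of a plate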
# Target sequence (P06935 1371-1501 limits assumed): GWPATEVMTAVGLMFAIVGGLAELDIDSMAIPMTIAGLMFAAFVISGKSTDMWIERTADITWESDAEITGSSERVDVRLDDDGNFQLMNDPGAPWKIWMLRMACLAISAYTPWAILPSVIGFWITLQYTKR
# Target sequence (P06935 1502-1679 limits assumed): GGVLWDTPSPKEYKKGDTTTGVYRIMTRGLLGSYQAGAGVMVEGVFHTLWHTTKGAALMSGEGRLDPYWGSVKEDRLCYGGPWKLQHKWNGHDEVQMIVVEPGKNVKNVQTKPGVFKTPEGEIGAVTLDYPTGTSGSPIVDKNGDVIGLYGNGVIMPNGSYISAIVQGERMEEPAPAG
# Hsc70 ATP site: Hsc70 inhibitors, probe displacement, primary screen, biochemical, fluorescence polarization (AID 568) | Hsc70 fluorescence polarization, probe displacement; higher % means a stronger effect; strong numbers were not always called active | 83,000 tested, under 10 active | one-dose displacement, % at 20 µM; IC50 in µM for titrated hits;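 active = displacement above 50% without optical interference and an IC50 on retest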;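 also: ATPase domain with a fluorescein-tagged ATP probe; 0% = vehicle and 100% = excess ADP; read after one hour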
# MT1-MMP promoter: inhibitors of MT1-MMP promoter transcription, cell-based, luciferase reporter, luminescence (AID 618). MT1-MMP promoter luciferase reporter cells, luminescence. calls from a first round at 10 µM; hits with a dose series show EC50 in µM. 0.62% of 87,000 active;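 active = over half of the reporter light lost at 10 µM or EC50 under 50 µM; inactive = the rest and hits that failed the dose series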;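 also: actives suppress MT1-MMP promoter-driven transcription so potencies describe inhibitors; HT1080 fibrosarcoma cells; overnight exposure; toxic or luciferase-blocking compounds were not removed from the actives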
# * marks the source's active call; other numbers are inactive results; i = inactive; x = no result given. This is a subset (hit frequency here may not be typical).
mol | WNV NS2B-NS3 inh | Hsc70 ATP site | MT1-MMP promoter
N#CC1=C(N)Oc2cc3c(cc2C1c1ccc(Cl)cc1)OCO3 (stereo not given) | -0.26 | 3.4% | i
Nc1nc(-c2ccco2)nn1C(=O)c1ccccc1 | x | -2.7% | i
COc1cccc(OC)c1OCC(O)CN1CCN(c2ccccc2)CC1 (stereo not given) | -0.61 | -5.0% | i
COc1ccc(N(CC(O)CN2C(=O)NC(C)(C)C2=O)S(=O)(=O)c2ccc(C)cc2)cc1 (stereo not given) | x | 0.3% | i
CCCCS/C(N)=N/N=C/c1ccccc1O | x | 7.4% | i
CCC(C)NS(=O)(=O)c1ccc(OCC(=O)N2CCC(C)CC2)cc1 (stereo not given) | x | 4.3% | i
COc1ccccc1-c1nc(C(N)=O)c2[nH]c(=O)n(-c3cccc(C)c3)c2n1 | -0.02 | -6.8% | i
COc1cc(CSc2ncn[nH]2)c(OC)cc1CSc1ncn[nH]1 | -0.3 | -5.0% | i
N#Cc1nc(COc2cccc(Cl)c2)oc1NCc1ccncc1 | -1.1 | -5.8% | i
Cc1occc1-c1nnc(SCC(=O)c2ccc(Cl)cc2)n1C | -0.69 | 1.4% | i
COc1ccc(OC)c(NC(=O)CCN2CCCC(C)C2)c1 (stereo not given) | -1.1 | -0.5% | i
O=C(CSc1nnnn1-c1ccccc1)Nc1nsc(-c2ccc(Cl)cc2)n1 | -0.15 | 0.3% | i
CC1Cc2ccccc2N1C(=O)CSc1nnnn1C(C)C (stereo not given) | x | 4.1% | i
CCOC(=O)C1CCN(C(=O)c2cc(S(=O)(=O)N3CCOCC3)c(Cl)cc2Cl)CC1 | -0.68 | 101% | i
CCCCS(=O)(=O)N1CN(S(=O)(=O)CCCC)C2NC(=O)NC21 (stereo not given) | 0.0055 | -1.0% | i
CC(C)N=C(NC#N)SCc1ccc(Br)cc1 | x | -6.1% | i
CCCC(=O)OCCNC(=O)c1cc2ccccc2oc1=O | -0.88 | 4.2% | i
Cn1c(C(=O)N2CCCC(C(=O)NCCc3ccccc3)C2)cc2sccc21 (stereo not given) | 0.12 | 2.7% | i
COc1ccc(Nc2nc(C)cc(C)c2C#N)cc1 | -0.27 | -2.8% | i
Cc1ccc(SCc2cc(=O)[nH]c(N3CCN(Cc4ccc5c(c4)OCO5)CC3)n2)cc1 | 0.45 | -4.4% | i

# Three structures out of the list, sorted by number of heavy atoms, smallest number first.
mol | WNV NS2B-NS3 inh | Hsc70 ATP site | MT1-MMP promoter
CCCCS(=O)(=O)N1CN(S(=O)(=O)CCCC)C2NC(=O)NC21 (stereo not given) | 0.0055 | -1.0% | i
COc1cccc(OC)c1OCC(O)CN1CCN(c2ccccc2)CC1 (stereo not given) | -0.61 | -5.0% | i
O=C(CSc1nnnn1-c1ccccc1)Nc1nsc(-c2ccc(Cl)cc2)n1 | -0.15 | 0.3% | i

# 2 entries picked at random from those above, as already listed:
mol | WNV NS2B-NS3 inh | Hsc70 ATP site | MT1-MMP promoter
N#CC1=C(N)Oc2cc3c(cc2C1c1ccc(Cl)cc1)OCO3 (stereo not given) | -0.26 | 3.4% | i
CCCCS(=O)(=O)N1CN(S(=O)(=O)CCCC)C2NC(=O)NC21 (stereo not given) | 0.0055 | -1.0% | i

# Returning to the listing, starting 3 compounds before the break.
mol | WNV NS2B-NS3 inh | Hsc70 ATP site | MT1-MMP promoter
Cn1c(C(=O)N2CCCC(C(=O)NCCc3ccccc3)C2)cc2sccc21 (stereo not given) | 0.12 | 2.7% | i
COc1ccc(Nc2nc(C)cc(C)c2C#N)cc1 | -0.27 | -2.8% | i
Cc1ccc(SCc2cc(=O)[nH]c(N3CCN(Cc4ccc5c(c4)OCO5)CC3)n2)cc1 | 0.45 | -4.4% | i
CCOc1ccc(NS(=O)(=O)c2ccc(SC)cc2)cc1 | 0.43 | 3.0% | i
CCn1c(SCC(=O)c2ccccc2)nnc1-c1cc2cc(Br)ccc2o1 | -0.73 | -4.2% | i
CC(=O)NC(Cc1c[nH]c2ccccc12)C(=O)OCC(=O)Nc1ccc2c(c1)OCO2 (stereo not given) | -0.31 | -2.6% | i
Cc1ccc2nc(NC(=O)CN3CCOCC3)sc2c1 | 0.41 | -3.0% | i
Cc1cc(C)c(NC(=O)c2cc3c(nc4sccn43)s2)c(C)c1 | -0.55 | -0.5% | i
CC1CC(C)CN(C(=O)CSc2nnc(CSc3ncccn3)n2C)C1 (stereo not given) | x | -4.0% | i
Cc1c(NC(=O)N2CCCCCC2)c(=O)n(-c2ccccc2)n1C | -0.38 | -4.3% | i
Cc1ccc(N=Nc2c(C)[nH][nH]c2=O)c(C)c1 | x | -4.2% | i
COCC(=O)Nc1nnc(C2CCCCC2)s1 | -0.41 | 2.4% | i
COCCN(Cc1ccccc1)P(=O)(O)c1ccccc1OCC(=O)O | -0.03 | -2.3% | i
Cc1cccc(N(C2C=CS(=O)(=O)C2)S(=O)(=O)c2ccccc2)c1 (stereo not given) | 0.54 | -1.3% | i
CCc1ccc(O)c(N=Cc2ccccc2O)c1 | -0.64 | -4.8% | i
Cc1nc(N2CCOCC2)c2oc3ccccc3c2n1 | -0.19 | 2.5% | i
CN1CCN(C(=O)C2C3C=CC(C3)C2C(=O)O)CC1 (stereo not given) | -0.1 | -1.4% | i
O=c1cc(CSc2nnnn2-c2ccccc2)nc(Nc2ccc(F)cc2)[nH]1 | x | 2.6% | i
O=C(CN1CCN(c2ccccc2)CC1)Nc1ccc(Oc2ccccc2)cc1 | x | -5.0% | i
Cc1ccc(Cn2ccc(NC(=O)c3cc(-c4ccc(F)cc4)on3)n2)cc1 | -0.85 | 4.7% | i
CN1CCc2nc(SCC(=O)Nc3ccc(Cl)cc3)c(C#N)cc2C1 | -0.11 | -0.1% | i
CCNc1nc(Oc2ccc(=O)n(-c3ccccc3)n2)nc(N2CCOCC2)n1 | -0.5 | -5.1% | i
COc1ccc(OC)c(C2=C[N+](=O)C(C)(C)C(C)(C)N2[O-])c1 | -0.39 | -2.9% | i
CC12CN3CC(C)(CN(C1)C3c1ccc3ccccc3c1O)C2=O (stereo not given) | 0.09 | -1.6% | i
Cc1ccc(-c2nnn(CC(=O)N(Cc3ccccc3)C(C(=O)NC3CCCC3)c3ccncc3)n2)o1 (stereo not given) | 0.08 | -10% | i
COc1ccc(-c2n[nH]c(C)c2-c2cc(OC)ccc2O)cc1 | x | 1.7% | i
Cc1noc(C)c1S(=O)(=O)Nc1c(C)n(C)n(-c2ccccc2)c1=O | -0.68 | -1.0% | i
COc1ccc(C(=O)N(CN2CCCC2=O)c2nccs2)cc1OC | -1.3 | 6.1% | i
OC(COc1cccc2ccccc12)CN1CCN(c2ccccn2)CC1 (stereo not given) | -0.06 | 1.3% | i
COc1ccc(-c2noc(-c3ccc(Br)o3)n2)cc1OC | -0.59 | -12% | i
CC(c1ccccc1)N1CNc2c(c(=O)n(C)c(=O)n2C)C1 (stereo not given) | 2.3 | -0.9% | i
C=CCn1c(=O)c2ccccc2n2c(SCc3cc(=O)n4ccsc4n3)nnc12 | -1.1 | 1.0% | i
O=C(c1cc(-c2cccc(O)c2)on1)N1CCOCC1 | 0.34 | -5.1% | i
CCSc1ncc(Cl)c(C(=O)N(Cc2ccc(N(C)C)cc2)C2CCS(=O)(=O)C2)n1 (stereo not given) | -0.61 | -0.5% | i
Cc1cc(-c2nn3c(C)nnc3s2)ccc1NC(=O)C(C)(C)C | 0.1 | -2.1% | i
Cc1ccc(C(CC(=O)O)Nc2nc(N3CCCCC3)nc(N3CCCCC3)n2)cc1 (stereo not given) | -0.47 | 1.2% | i
CCOc1ccc(C(=O)CSc2nnc3ccccn23)cc1 | x | 0.3% | i
CCOc1ccc(-n2c(SCC(=O)Nc3cc(C)on3)nc3c([nH]c4ccccc43)c2=O)cc1 | -0.63 | 2.6% | i
Cn1c(Cn2c(=O)sc3ccccc32)nnc1SCC(=O)Nc1ccccc1 | -0.33 | 5.8% | i
CC(C)C1Cc2c(sc3c2c(=O)n(Cc2ccccc2)c2nncn32)CO1 (stereo not given) | 0.0063 | -1.1% | i
O=C(COc1ccc(C(=S)N2CCOCC2)cc1)N1CCCC1 | 0.67 | 0.8% | i
COc1ccccc1N1CCN(c2nc3ccccc3n3nnnc23)CC1 | 1.9 | 42% | i
COc1ccc(N2CC(C)Cn3c2nc2c3c(=O)[nH]c(=O)n2C)cc1 (stereo not given) | -0.31 | -6.7% | i
O=C(O)c1cccnc1SC1CC(=O)N(c2cccc(C(F)(F)F)c2)C1=O (stereo not given) | 0.28 | 1.9% | i
COc1ccc(-c2nnc(SCC(=O)N3CCCC(C)C3)o2)c(OC)c1 (stereo not given) | -0.2 | -2.9% | i
Brc1cnc(N2CCOCC2)nc1N1CCCCC1 | 1.1 | 0.8% | i
O=C(CSc1nnc(-c2ccncc2)n1CCc1ccccc1)NCc1ccccc1 | x | 1.3% | i
CC(=O)N1c2c(cc(Br)cc2S(=O)(=O)NCc2cccnc2)CC1C (stereo not given) | -1.1 | 0.3% | i
CCC(c1nnnn1CCc1ccccc1)N(Cc1ccco1)Cc1cc2cc(C)cc(C)c2[nH]c1=O (stereo not given) | 1.4 | -13% | i
CC(C)c1ccc(C2CC(=O)N3CN(Cc4ccco4)CSC3=C2C#N)cc1 (stereo not given) | 0.17 | 2.0% | i
CCn1c(=O)cc(OCC(=O)Nc2cccnc2)c2ccccc21 | -0.98 | -2.4% | i
CCN1C(=O)c2cccc3c(S(=O)(=O)NC(Cc4c[nH]c5ccccc45)C(=O)O)ccc1c23 (stereo not given) | -0.03 | -0.3% | i
CCN(C(=O)c1cc2cc3ccc(C)cc3nc2o1)c1ccc(OC)cc1 | -0.43 | -3.2% | i
NC(=O)c1cc(N)ccc1N1CCCC1 | 0.44 | 0.2% | i
COc1ccc(CCNC(=O)C2CCCN(Cc3nc(-c4cccc(Cl)c4)oc3C)C2)cc1OC (stereo not given) | 0.11 | 6.6% | i
CCOC(=O)COn1c(=O)c(-c2ccc(OC)c(OC)c2)[n+]([O-])c2ccccc21 | -1.4 | -5.9% | i
Cc1cc(NC2C3CC4CC(C3)CC2C4)n2ncnc2n1 (stereo not given) | -1.4 | -5.8% | i
CSc1ccc(C2C(C#N)=C(N)N(c3ccccc3)C3=C2C(=O)CCC3)cc1 (stereo not given) | -0.72 | -1.2% | i
Cn1c(=O)[nH]c(=O)c2c1nc(N1CCNCC1)n2Cc1cccc2ccccc12 | -0.69 | 1.7% | i
CCCCNC(=O)CN1CCC2(O)CCCCC2C1c1ccccc1OC (stereo not given) | -0.19 | -0.4% | i
COC(=O)c1ccc(CSc2ncnc3ccccc23)o1 | 0.64 | -4.7% | i
CCCc1cc(=O)[nH]c(SCC(=O)N2CCN(S(=O)(=O)c3ccc(C)cc3)C2)n1 | 0.58 | 7.9% | i
COC(=O)c1sc2ccccc2c1N | 2.1 | 1.5% | i

# Following part.
mol | WNV NS2B-NS3 inh | Hsc70 ATP site | MT1-MMP promoter
COC(=O)CSc1snnc1-c1ccc(Cl)cc1Cl | x | 5.9% | i
CCOC(=O)N1CCN(CC(=O)Nc2ccc(C)c(Br)c2)CC1 | 0.32 | -8.2% | i
CCOC(=O)c1ccc2nc(NC(NC(C)=O)(C(=O)OC)C(F)(F)F)sc2c1 (stereo not given) | -0.28 | -1.6% | i
Cc1cccc(NC(=O)CC(C)(C)C)c1 | 0.32 | -6.6% | i
Cc1cccc(C(=O)OCc2cc3ccccc3[nH]c2=O)c1 | 0.79 | 6.7% | i
CC(=O)NC(c1ccccc1)c1nc2ccccc2[nH]1 (stereo not given) | 0.26 | -1.8% | i
Clc1ccc(-n2ncc3c(NCCCn4ccnc4)ncnc32)cc1 | -0.05 | -1.4% | i
COc1c[nH]n(C2CCCCC2)c(=O)c1=O | -0.75 | 0.4% | i
O=C(CN(CC1CCCO1)C(=O)CNS(=O)(=O)c1ccc(Cl)cc1)NCCc1ccccc1 (stereo not given) | x | 2.3% | i
CCCCCCc1cc2cc(-c3nnc(-c4ccccc4)o3)c(=O)oc2cc1O | x | -37% | i
O=C(CSc1nnc(-c2cccnc2)n1Cc1ccco1)Nc1nc(-c2ccc(F)cc2)cs1 | -0.32 | 1.4% | i
CCCc1nc2ccccc2c(=O)n1/N=C/c1c(C)[nH]n(-c2ccc(C)cc2)c1=O | 0.35 | 3.8% | i
Clc1cc2c(c(Cn3cnc4ccccc43)c1)OCOC2 | -0.82 | 0.8% | i
Cc1oc(-c2ccc(Cl)cc2)nc1CN1CCCC(C(=O)N2CCc3ccccc32)C1 (stereo not given) | -1.6 | -0.5% | i
O=C(CSC1=NCCS1)N1CCOCC1 | 0.17 | 2.2% | i
COc1ccc(-n2nnc3c(=O)n(Cc4cccc(C)c4)cnc32)cc1 | 1.2 | -2.3% | i
CCOC(=O)C1CCN(C(=O)Nc2ccc(Cl)cc2Cl)CC1 | -0.39 | 5.1% | i
COc1ccc(N2C(=O)C3CCCN3C2c2cccc(OC)c2)cc1 (stereo not given) | 0.12 | -3.4% | i
CCn1c(C)nc2cc(C(=O)n3cc(C(=O)c4cc(F)ccc4O)cn3)ccc21 | -0.76 | 1.9% | i
CCN(CC)CC(=O)c1c[nH]c2ccc(OC)cc12 | x | -4.2% | i
NC(=O)C1CNc2ccccc2O1 (stereo not given) | x | 3.5% | i
CCOC(=O)c1[nH]c(C)c(C(=O)NCc2ccc(C)cc2)c1C | -0.74 | 5.2% | i
COc1ccc(OC)c(NC(=O)Cc2nn(C)c(=O)c3ccccc23)c1 | -0.49 | 3.8% | i
